Assay outcomes (PubChem)
HNF4A DNA FP = change in binding of human HNF4 alpha to DNA. HNF4a-FITC DNA binding, fluorescence polarization, 1 h. activity change, % at 10 µM. actives 0.3% (n = 360,000). P41235; in the data active means activity change above about 30%, passing the limit was not always enough;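 further: controls were the assay level and a saturating level of protein; the project sought stronger binding though the title names inhibitors; some compounds called inactive have numbers as strong as hits; positive values seem to mean higher polarization but the record does not say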
Target sequence (P41235 whole entry, looked up): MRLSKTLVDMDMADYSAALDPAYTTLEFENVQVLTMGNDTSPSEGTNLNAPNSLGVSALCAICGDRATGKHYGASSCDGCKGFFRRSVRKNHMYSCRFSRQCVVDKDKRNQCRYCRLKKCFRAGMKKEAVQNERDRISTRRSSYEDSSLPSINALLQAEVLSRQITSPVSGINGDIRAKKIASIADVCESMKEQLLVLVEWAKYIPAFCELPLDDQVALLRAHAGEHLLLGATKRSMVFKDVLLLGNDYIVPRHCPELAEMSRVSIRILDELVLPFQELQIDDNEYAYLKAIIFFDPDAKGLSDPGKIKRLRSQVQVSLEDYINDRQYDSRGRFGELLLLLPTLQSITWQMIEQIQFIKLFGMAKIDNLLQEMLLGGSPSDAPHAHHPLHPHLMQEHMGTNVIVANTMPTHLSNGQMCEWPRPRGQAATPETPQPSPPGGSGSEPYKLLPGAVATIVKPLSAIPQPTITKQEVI
RanGTP-Impb inh = inhibitors of RanGTP-importin-beta interaction, primary screen, biochemical, FRET, CFP-Ran, YFP-importin-beta, homogeneous; AID 2216; cell-free CFP-Ran/YFP-importin-beta FRET ratio; inhibition, % (no concentration beside the values); actives 1.1% (n = 300,000);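 active means most replicates above 15%; inconclusive means exactly half above 15%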;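 further: 0% = DMSO wells and 100% = Ran loaded with GDP instead of GTP; wells of about 40 µL received 100 nL stock; the first replicate is given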
FGF22 binding = FGF22 (human) thermal shift binding. recombinant FGF22 thermal shift, SYPRO orange fluorescence; percent of sucrose octasulfate shift, DMSO zero. calls only at 9.99 µM. actives 1.5% (n = 340,000). Q9HCT0;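 active means melting point raised past a set limit in the mean and every replicate; inconclusive means no clear call; three in four hits are not shown here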
Vif A3G = HIV-1 Vif–A3G interaction blockers – biochemical, TR-FRET, GST-Vif 1-94, biotin-A3G peptide, dose response retest, primary screen (AID 1117319). TR-FRET GST-Vif / biotin-A3G peptide binding; higher % means a stronger effect; test concentration not given here; strong numbers were not always called active. actives 0.57% (n = 260,000). one-dose inhibition, %; IC50 in µM for titrated hits;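 active means above the screen mean plus three standard deviations and confirmed in dose response; inconclusive means results disagree or hit not tested in dose response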;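 further: Vif residues 1-94 fused to GST binding biotinylated APOBEC3G peptide 110-148; 0% = full assay without inhibitor and 100% = GST in place of GST-Vif; retest series ran down from 100 µM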
AF4-AF9 inh = blocks AF4 peptide binding to human AF9; P42568; AlphaScreen, biotin-AF4 peptide binding to FLAG-AF9; inhibition, % at 10 µM; actives 0.47% (n = 350,000);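 active means every replicate reaching a set inhibition limit, whatever the replicate mean, cut at about 25% in these data; inconclusive means mean inhibition reaches that limit but some replicates miss it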;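 further: 0% = plate neutral control median and 100% = total signal loss; the record names both 10 and 1 µM as test concentration; the first replicate is given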
Target sequence (P42568 whole entry, looked up): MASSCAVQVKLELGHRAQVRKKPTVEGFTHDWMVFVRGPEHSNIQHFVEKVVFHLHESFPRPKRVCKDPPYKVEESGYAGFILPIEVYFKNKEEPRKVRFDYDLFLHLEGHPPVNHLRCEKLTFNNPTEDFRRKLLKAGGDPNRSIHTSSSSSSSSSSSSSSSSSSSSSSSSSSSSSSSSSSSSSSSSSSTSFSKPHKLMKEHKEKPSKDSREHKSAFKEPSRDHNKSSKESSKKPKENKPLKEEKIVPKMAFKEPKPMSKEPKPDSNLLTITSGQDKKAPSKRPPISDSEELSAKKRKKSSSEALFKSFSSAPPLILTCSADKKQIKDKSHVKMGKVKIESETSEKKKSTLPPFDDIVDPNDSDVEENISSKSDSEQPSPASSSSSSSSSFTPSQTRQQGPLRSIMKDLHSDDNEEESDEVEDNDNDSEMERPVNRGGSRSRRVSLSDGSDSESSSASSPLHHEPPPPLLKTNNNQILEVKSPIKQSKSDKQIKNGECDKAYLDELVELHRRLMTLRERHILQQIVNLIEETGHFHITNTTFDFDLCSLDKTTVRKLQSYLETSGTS
UCH37 DUB inh = inhibitors of human deubiquitinating enzyme UCH37; Q9Y5K5; purified proteasome/UCH37, Ub-AMC cleavage fluorescence; inhibition, % (concentration not given with the values); actives 0.33% (n = 330,000); AID 588478;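 active means mean of two replicates above 20%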;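 further: 0% = compound-free wells with enzyme and 100% = wells lacking proteasome; stock transfer was 100 nL into about 20 µL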
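Assay system: Proteasome-bound UCH37. Buffer or medium: pH 7.4 Tris-HCl (50 mM) with ovalbumin, ATP-MgCl2, DTT. Incubation: 30 min preincubation with enzyme, 25 min cleavage at room temperature. Measured by: fluorescence, ex 355 nm, em 460 nm. Read-out basis: percent inhibition. Control set: wells without proteasome as full block, compound-free enzyme plus substrate as uninhibited.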
E coli growth = blocks Escherichia coli growth. OD600, 23 h; active compounds read low. actives 0.21% (n = 330,000). OD600 absorbance (concentration not given with the values). AID 1053175;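 active means OD600 absorbance below the run mean of sample wells minus 3.6 SD, in any replicate, cut at about 0.56 in these data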;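 further: stock transfer was 300 nL into about 60 µL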
Active calls of the source: *; & = joins results of further samples. Not all compounds are listed; the hit share may differ from the screen's.

Results for O=C1OCc2cc(NC(=O)C3COc4ccccc4O3)ccc21 (stereo unspecified) ?
HNF4A DNA FP: 1.0; RanGTP-Impb inh: 6.1; FGF22 binding: inactive; Vif A3G: -15%; AF4-AF9 inh: -4.5; UCH37 DUB inh: 2.1; E coli growth: 0.66

Results for Cc1c(NC(=O)c2cc(-c3ccc(F)cc3)on2)c(=O)n(-c2ccccc2)n1C ?
HNF4A DNA FP: 0.6; RanGTP-Impb inh: 1.6; FGF22 binding: inactive; Vif A3G: 3%; AF4-AF9 inh: 3.5; UCH37 DUB inh: 4.6; E coli growth: 0.66

What do the screens show for `O=C(NCC1CCCO1)c1cc2n(n1)C(C(F)(F)F)CC(c1ccc(Br)cc1)N2` (stereo unspecified)?
HNF4A DNA FP: -2.4; RanGTP-Impb inh: inconclusive; Vif A3G: 13%; UCH37 DUB inh: 1.6; E coli growth: 0.72

What do the screens show for `Cc1ccccc1C(=O)NCC(=O)NNC(=S)NC(=O)c1ccccc1C`?
HNF4A DNA FP: -0.1; RanGTP-Impb inh: -0.1; Vif A3G: 5%; UCH37 DUB inh: 2.1; E coli growth: 0.65

How did CCn1c(COc2ccccc2C)nnc1SCC(=O)NC1CCCC1 do in these assays?
HNF4A DNA FP: 6.0; RanGTP-Impb inh: 0.1; Vif A3G: 4%; UCH37 DUB inh: 1.0; E coli growth: 0.66

Results for O=c1oc2ccc(C#CC3(O)CCCCC3)cc2cc1-n1cc(-c2ccsc2)nn1 ?
HNF4A DNA FP: -1.3; FGF22 binding: inactive; UCH37 DUB inh: -1.1; E coli growth: 0.68

How did CC(C)(C)OC(=O)COc1cc(OCC(=O)OC(C)(C)C)c2c(=O)cc(-c3ccccc3)oc2c1 do in these assays?
HNF4A DNA FP: 3.0; Vif A3G: 16%; AF4-AF9 inh: 0.5; UCH37 DUB inh: -18; E coli growth: 0.68

Results for CC1(C)Cc2c(sc3[nH]c(=S)[nH]c(=O)c23)CO1 ?
HNF4A DNA FP: -1.3; RanGTP-Impb inh: 0.8; FGF22 binding: inactive; Vif A3G: -9%; AF4-AF9 inh: -0.5; UCH37 DUB inh: 6.0; E coli growth: 0.7

How did CN(C)/C=C/C(=O)c1cnc(-c2ccccc2Cl)s1 do in these assays?
HNF4A DNA FP: 0.2; RanGTP-Impb inh: -4.1; FGF22 binding: inactive; Vif A3G: -7%; AF4-AF9 inh: 1.1; UCH37 DUB inh: 13; E coli growth: 0.64

Results for Cc1cc(NC(=O)CCC(=O)N(CC(=O)NC2CCCC2)Cc2ccc(F)cc2)no1 ?
HNF4A DNA FP: 4.3; RanGTP-Impb inh: 0.3; Vif A3G: -11%; UCH37 DUB inh: 5.2; E coli growth: 0.66

How did Cc1nn2c(=O)c3c4c(sc3nc2n1-c1ccccc1)COC(C)(C)C4 do in these assays?
HNF4A DNA FP: -1.6; RanGTP-Impb inh: 3.3; FGF22 binding: inactive; Vif A3G: -6%; AF4-AF9 inh: 1.5; UCH37 DUB inh: 3.9; E coli growth: 0.63

What do the screens show for `O=C(CNCc1ccc(Cl)cc1)Nc1ccc2c(c1)OCCO2`?
HNF4A DNA FP: 1.8; RanGTP-Impb inh: -2.8; FGF22 binding: inactive; AF4-AF9 inh: 2.3; UCH37 DUB inh: 5.0; E coli growth: 0.65

What do the screens show for `COc1ccccc1-c1ccc(SCC(=O)Nc2cc(C)on2)nn1`?
HNF4A DNA FP: -1.4; RanGTP-Impb inh: -1.4; FGF22 binding: inactive; Vif A3G: 13%; AF4-AF9 inh: -0.3; UCH37 DUB inh: 2.6; E coli growth: 0.69

Results for CCCc1cc(C(=O)Nc2cccc(Cl)c2C)no1 ?
HNF4A DNA FP: 0.4; RanGTP-Impb inh: 0.5; FGF22 binding: inactive; Vif A3G: 0%; AF4-AF9 inh: -4.8; UCH37 DUB inh: 0.5; E coli growth: 0.66

What do the screens show for `Cc1cc(Br)ccc1SCC(=O)OCC(=O)c1c(N)n(C)c(=O)n(C)c1=O`?
HNF4A DNA FP: 2.1; RanGTP-Impb inh: 2.5; FGF22 binding: inactive; AF4-AF9 inh: 7.0; UCH37 DUB inh: 3.9; E coli growth: 0.68

How did Cc1ccc(CC2(C)C(=O)Nc3c(Cl)cccc32)cc1 (stereo unspecified) do in these assays?
HNF4A DNA FP: -0.6; FGF22 binding: inactive; AF4-AF9 inh: -0.3

How did Cc1cc(F)ccc1-c1cc(C(=O)NCc2ccc(C(F)(F)F)cc2)[nH]n1 do in these assays?
HNF4A DNA FP: -2.8; FGF22 binding: inactive; AF4-AF9 inh: -3.7

Results for CCc1[nH]nc2c1C1(CCN(C(=O)OCc3ccccc3)CC1)C(C#N)=C(N)O2 ?
HNF4A DNA FP: -3.5; RanGTP-Impb inh: 5.8; Vif A3G: 67%; UCH37 DUB inh: 0.8; E coli growth: 0.75

What do the screens show for `Cn1cccc1C(=O)NC(=O)COC(=O)CNS(=O)(=O)c1ccc(Br)cc1`?
HNF4A DNA FP: -1.2; RanGTP-Impb inh: -4.1; Vif A3G: 14%; UCH37 DUB inh: 0.0; E coli growth: 0.71

How did N/C(CCS(=O)(=O)c1ccc(Cl)cc1)=N\OC(=O)c1ccccc1Cl do in these assays?
HNF4A DNA FP: -7.5; RanGTP-Impb inh: 0.1; FGF22 binding: inactive; Vif A3G: -2%; AF4-AF9 inh: -0.7; UCH37 DUB inh: 3.7; E coli growth: 0.63

How did COc1ccc(-n2c(SCC(=O)O)nc3sc4c(c3c2=O)CCC4)cc1 do in these assays?
HNF4A DNA FP: 2.1; RanGTP-Impb inh: inconclusive; FGF22 binding: inactive; Vif A3G: -2%; AF4-AF9 inh: -3.4; UCH37 DUB inh: 8.1; E coli growth: 0.65

Results for O=C(N/N=C/c1cccc(O)c1)NC1CCCCC1 ?
HNF4A DNA FP: -2.5; RanGTP-Impb inh: inconclusive; FGF22 binding: inactive; AF4-AF9 inh: 2.3

How did Nc1nc(=S)c2ncn(C3OC(CO)C(O)C3O)c2[nH]1 (stereo unspecified) do in these assays?
HNF4A DNA FP: -28; RanGTP-Impb inh: 5.1; FGF22 binding: inactive; Vif A3G: 28%; AF4-AF9 inh: -2.3; UCH37 DUB inh: 8.6; E coli growth: 0.52&0.6

What do the screens show for `COc1cccc(C2C(C#N)=C(N)Oc3cc(C)n(Cc4ccco4)c(=O)c32)c1` (stereo unspecified)?
HNF4A DNA FP: 2.4; RanGTP-Impb inh: 6.7; Vif A3G: 12%; UCH37 DUB inh: 0.8; E coli growth: 0.67

What do the screens show for `O=C1CCc2cc(S(=O)(=O)N3CCC(C(=O)NCc4ccccn4)CC3)ccc2N1`?
HNF4A DNA FP: 5.2; RanGTP-Impb inh: -1.0; FGF22 binding: inactive; Vif A3G: 2%; AF4-AF9 inh: -19; UCH37 DUB inh: 2.0; E coli growth: 0.74

Results for CC1CCc2sc(C(=O)N(C)CC(=O)Nc3ccc(N4CCOCC4)cc3)cc2C1 (stereo unspecified) ?
HNF4A DNA FP: 5.9; RanGTP-Impb inh: 0.8; FGF22 binding: inactive; AF4-AF9 inh: 0.4; UCH37 DUB inh: 1.1; E coli growth: 0.69

What do the screens show for `O=C(Cc1ccccc1)NCC1OCCc2ccccc21` (stereo unspecified)?
HNF4A DNA FP: -0.9; RanGTP-Impb inh: inconclusive; FGF22 binding: inactive; AF4-AF9 inh: -3.2; UCH37 DUB inh: -0.1; E coli growth: 0.69

What do the screens show for `CC(C)CNC(=O)NC1C(NC(=O)NCC(C)C)N(C)C(=O)N1C` (stereo unspecified)?
HNF4A DNA FP: 0.1; RanGTP-Impb inh: 3.1; Vif A3G: 7%; UCH37 DUB inh: 2.3; E coli growth: 0.78

What do the screens show for `C[n+]1cccc(CNC(=O)/C=N/O)c1`?
HNF4A DNA FP: 0.3; RanGTP-Impb inh: 0.5; Vif A3G: -7%

What do the screens show for `CCOC(=O)c1c(C)[nH]c(C)c1C(=O)COC(=O)c1cccnc1SC`?
HNF4A DNA FP: -0.7; FGF22 binding: inactive; AF4-AF9 inh: 5.6; UCH37 DUB inh: 1.7; E coli growth: 0.69

Not a retest: an excerpt of the list.
How did Cc1ccc(CC2(C)C(=O)Nc3c(Cl)cccc32)cc1 (stereo unspecified) do in these assays?
HNF4A DNA FP: -0.6; FGF22 binding: inactive; AF4-AF9 inh: -0.3

How did Cc1cc(F)ccc1-c1cc(C(=O)NCc2ccc(C(F)(F)F)cc2)[nH]n1 do in these assays?
HNF4A DNA FP: -2.8; FGF22 binding: inactive; AF4-AF9 inh: -3.7

(listing goes on)
Results for CC1CCC(NC(=O)COC(=O)c2ccc3ncsc3c2)CC1 (stereo unspecified) ?
HNF4A DNA FP: 1.2; FGF22 binding: inactive; AF4-AF9 inh: 5.5; UCH37 DUB inh: 3.9; E coli growth: 0.72

Results for COc1cccc(NC(=O)Cn2cc(C=O)c3ccccc32)c1 ?
HNF4A DNA FP: -0.5; RanGTP-Impb inh: 0.8; FGF22 binding: inactive; Vif A3G: -4%; AF4-AF9 inh: 1.8; UCH37 DUB inh: 2.5; E coli growth: 0.64

What do the screens show for `Cc1nnc(N(C)C(=O)c2cnccn2)s1`?
HNF4A DNA FP: 2.5; RanGTP-Impb inh: 3.2; FGF22 binding: inactive; Vif A3G: 7%; AF4-AF9 inh: -9.2; UCH37 DUB inh: -0.9; E coli growth: 0.68

What do the screens show for `O=C(O)c1ccccc1Nc1cccc(OCc2ccc3ccccc3n2)c1`?
HNF4A DNA FP: -4.1; FGF22 binding: inactive; AF4-AF9 inh: 6.5; UCH37 DUB inh: 1.3; E coli growth: 0.69

How did CCOC(=O)c1sc(NC(=O)c2ccc(C)o2)nc1C do in these assays?
HNF4A DNA FP: 4.0; RanGTP-Impb inh: 0.0; Vif A3G: -20%; UCH37 DUB inh: 1.8; E coli growth: 0.69

Results for Cc1ccc(-c2nnc(Oc3cccc(C)c3)c3ccccc23)cc1 ?
HNF4A DNA FP: -0.9; RanGTP-Impb inh: 0.7; UCH37 DUB inh: 1.8; E coli growth: 0.68

What do the screens show for `O=C(NCCN1Cc2ccccc2C1=O)c1cccs1`?
HNF4A DNA FP: 0.1; RanGTP-Impb inh: 2.4; Vif A3G: -3%; UCH37 DUB inh: 1.0; E coli growth: 0.69

How did COc1ccc(CNC(=O)c2[nH]c(C)c(C(C)=O)c2C)cc1 do in these assays?
HNF4A DNA FP: 5.2; RanGTP-Impb inh: -2.0; FGF22 binding: inactive; AF4-AF9 inh: -0.7; UCH37 DUB inh: -0.9; E coli growth: 0.7

How did COc1cc(/C=C2\SC(=S)N(NC(=O)c3ccc(O)c(OC)c3)C2=O)ccc1O do in these assays?
HNF4A DNA FP: 59*; RanGTP-Impb inh: -12; FGF22 binding: inactive; Vif A3G: 11%; AF4-AF9 inh: 7.0

Results for CC(C)Nc1cc(N2CCCC2)ccc1[N+](=O)[O-] ?
HNF4A DNA FP: -2.1; RanGTP-Impb inh: 0.1; FGF22 binding: inactive; Vif A3G: -4%; AF4-AF9 inh: 1.3; UCH37 DUB inh: 3.3; E coli growth: 0.7

How did Cc1ccc(S(=O)(=O)n2ccc(OC(=O)c3cccs3)n2)cc1 do in these assays?
HNF4A DNA FP: -1.3; RanGTP-Impb inh: 1.6; FGF22 binding: inactive; AF4-AF9 inh: -3.9; UCH37 DUB inh: -1.8; E coli growth: 0.66

What do the screens show for `CCc1cccc2c1NC(=O)C21N2CCCC2C(C(=O)c2ccc3ccccc3c2)C12C(=O)Nc1ccccc12` (stereo unspecified)?
HNF4A DNA FP: 4.1; RanGTP-Impb inh: 1.3; FGF22 binding: inactive; AF4-AF9 inh: 4.9; UCH37 DUB inh: 2.6; E coli growth: 0.68
